Screens from PubChem BioAssay.
CDC25B CDK2 inh – human CDC25B-CDK2/CyclinA binding inhibition. AID 1259370. actives 0.72% (n = 94,000). z-score (test concentration not listed). P30305+P24941. HTRF CDC25B-CDK2/CyclinA binding, anti-His/anti-Flag; hits give high values;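 note: score is relative to mean and SD of negative controls; strong numbers were not always called active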
HIV TAR-Tat – HIV-1 TAR-Tat binding disruption. actives 0.6% (n = 100,000). AID 1259389. HIV-1 TAR RNA, Tat peptide displacement FRET; hits give high values. z-score (test concentration not listed);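 note: score is relative to mean and SD of negative controls; some compounds called inactive have numbers as strong as hits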
* hit, by the source's call; . = no result given.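 Rule for the calls: active = z-score from 3 up in half or more of its runs; inactive = the rest.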

structure | CDC25B CDK2 inh | HIV TAR-Tat
Cc1c(C(=O)N2CCC(c3nc4ccccc4o3)CC2)oc2ccccc12 | -0.36 | 0.48
Cc1ccc(S(=O)(=O)NC(CC(C)C)C(=O)Oc2ccc3c4c(c(=O)oc3c2)CCC4)cc1 (configuration not stated) | -0.76 | .
O=C(CSc1nc2nccnc2c(=O)n1CC1CCCO1)Nc1ccccc1 (configuration not stated) | -3 | 1.6
Cc1ccn2c(=O)c(C(=O)NC3CCCCC3)c(O)nc2c1 | -0.72 | -0.44
CCCNC(=O)C1CCN(c2nnc(N3CCCC3=O)s2)CC1 | -1.3 | -1.4
O=C(Nc1nnc(Cc2ccc(Cl)cc2)s1)c1cccnc1 | -0.18 | .
Cc1csc(NC(=O)Nc2ccc(C(F)(F)F)cc2)c1Cl | -0.88 | .
O=C(Cc1cccs1)N1CCCN(c2ccc(=O)n(-c3ccccc3)n2)CC1 | . | 0.95
COCCCN1C(=O)C(=O)/C(=C(/O)c2ccccc2)C1c1ccc(F)cc1 (configuration not stated) | -2.5 | 0.29
CCN(CC)c1nc(NCc2ccccc2)c2cnn(C)c2n1 | . | 1.2
c1ccc(-c2nc3c4ccccc4ccn3c2CN2CCCCC2)cc1 | -1.8 | 0.29
COc1ccccc1-c1noc2ncnc(NCc3ccco3)c12 | . | 1.7
C=Cc1ccc(CN2C(=O)N(c3ccc(CC)cc3)C3CS(=O)(=O)CC32)cc1 (configuration not stated) | -1.1 | 3.1
Nc1cc(-c2ccccc2)nn1S(=O)(=O)c1cc(Cl)sc1Cl | -1.2 | .
CC(C)c1ccc(C2N=C(N)Nc3nc4ccccc4n32)cc1 (configuration not stated) | -0.85 | 1.7
CC(C)N(C(=O)Cn1cc(SCC(=O)N2CCCC2)c2ccccc21)C(C)C | . | -0.46
CCCn1cc(S(=O)(=O)c2ccccc2)c(=O)c2cc(F)c(N(CC)CC)cc21 | . | 0.33
COC(=O)c1cc(NC2OC(=O)c3ccccc32)cc(C(=O)OC)c1 (configuration not stated) | -1.4 | 2
S=c1nccc(-c2cccs2)[nH]1 | -0.8 | .
O=C(C1COc2cc(S(=O)(=O)N(Cc3ccco3)C3CCCC3)ccc2O1)N1CCCCC1 (configuration not stated) | . | -0.42
COc1ccc(S(=O)(=O)Nc2cccc(N3CCCS3(=O)=O)c2)cc1OC | . | -0.43
O=c1c2nccnc2nc(SCc2ccccc2Cl)n1CCc1c[nH]c2ccccc12 | -1.4 | 1.3
CSc1cccc(-n2nnc(C(=O)O)c2C)c1 | 0.48 | 0.17
CCCCNc1nc(CCCC)c2c(c1C#N)CC(C)(C)OC2 | -1.2 | 0.37
c1ccc(-c2ccccn2)nc1 | -0.81 | .
CC1(C)CCc2cc(S(=O)(=O)NCc3ccc(S(N)(=O)=O)cc3)ccc2O1 | -2.2 | .
O=C(c1ccc2c(c1)N(Cc1ccc(F)cc1)CCS2)N1CCOCC1 | -1.7 | 0.51
Cc1nn(-c2ccc3nncn3n2)c(C)c1CCC(=O)O | -1.3 | -1.2
O=C(Nc1ccc(Sc2nc3ccccc3n3nnnc23)cc1)C1CC1 | -3 | 1.6
COc1ccccc1-c1nnc(-c2cccc(Cl)c2)o1 | -0.77 | 0.48
Cc1cc(C)n(-c2cc(NCc3ccc4c(c3)OCO4)ncn2)n1 | . | 2.3
O=C(Cc1csc(-c2ccccc2)n1)Nc1nc(-c2ccccc2)cs1 | 0.55 | 0.46
Cc1cc(-c2onc(C)c2C(=O)Sc2cccc(C(F)(F)F)c2)no1 | -2.7 | .
CC1(C)CSC(=NC2CCCCC2)N1 | 0.74 | .
CC(C)NC(=O)C1CCN(C(=O)c2cc3sccc3n2Cc2ccc(F)cc2)CC1 | -2.9 | .
COCCCNC(=O)CCCn1c(=S)[nH]c2c([nH]c3ccc(OC)cc32)c1=O | -2.1 | .
CCCN1C=NS(=O)(=O)c2ccccc21 | . | -0.6
O=C(c1cccnc1)N1N=C(C2CCCCC2)CC1(O)C(F)(F)F (configuration not stated) | -2.6 | .
CN(Cc1nnc(-c2ccccc2)o1)C1CCCCC1 | -1.3 | 1.3
CN(C)c1ccc(CN(C(=O)c2cc(-c3ccc4c(c3)OCCO4)on2)C2CCS(=O)(=O)C2)cc1 (configuration not stated) | -0.99 | 1.4
CSc1nnc2c(n1)OC(c1ccc(O)cc1)Nc1ccc(Br)cc1-2 (configuration not stated) | -0.19 | -2.2
COc1ccc(OC)c(S(=O)(=O)Nc2ccc3[nH]c(=O)sc3c2)c1 | . | 0.56
CSc1nnc(NC(=O)c2nn(-c3ccc(C)cc3)ccc2=O)s1 | -0.76 | 0.97
c1ccc2c(CSc3nnc([C@@H]4CCCN4)o3)cccc2c1 | -0.99 | -0.92
O=C(NC1CCCC1)C1c2c(ccc3ccccc23)OCC(=O)N1c1cccc(F)c1 (configuration not stated) | . | 1.4

Part of the list above, with values under each structure.
Values in the order: CDC25B CDK2 inh, HIV TAR-Tat
CSc1nnc2c(n1)OC(c1ccc(O)cc1)Nc1ccc(Br)cc1-2 (configuration not stated)
    -0.19, -2.2
CC(C)NC(=O)C1CCN(C(=O)c2cc3sccc3n2Cc2ccc(F)cc2)CC1
    -2.9, .

New compounds follow.
structure | CDC25B CDK2 inh | HIV TAR-Tat
CC(C)c1ccc(Nc2cnc3ccccc3n2)cc1 | . | -0.2
COc1ccc(-c2nnc3ccc(SCC(=O)NCC4CCCO4)nn23)cc1OC (configuration not stated) | -0.44 | .
Fc1ccc(Nc2ncnc3c2cnn3-c2ccccc2)c(F)c1 | -3.1 | -1.6
COc1ccccc1N1CCN(C(=O)C(C)Nc2ccccn2)CC1 (configuration not stated) | -2.4 | .
Cc1cc(-c2ccc(S(=O)(=O)NC(C)(C)C)s2)n[nH]1 | . | -0.93
O=C(Nc1cccc(F)c1)c1noc2c1CCc1sccc1-2 | . | -0.85
COC(=O)c1sc2cccc(F)c2c1S(=O)(=O)N1CCN(c2ccccc2OC)CC1 | . | 0.58
CCOc1ccc2nc3c(nc2c1)-c1ccccc1C3=O | -0.91 | 2.8
Cc1ccc(CNc2cc(C)nc3nc(-c4ccco4)nn23)cc1 | . | -0.25
CCOC(=O)c1noc2ncnc(N(C)c3ccc(F)cc3)c12 | . | -0.23
O=C(O[C@@H]1Cc2c(O)cc(O)cc2O[C@@H]1c1ccc(O)c(O)c1)c1cc(O)c(O)c(O)c1 | . | 29*
CCOc1ccc2ncc(S(=O)(=O)c3ccccc3)c(Nc3ccc4c(c3)OCCO4)c2c1 | -0.61 | -1.9
Cc1ccc(Cl)cc1N1CCN(c2c3c(nc4ncnn24)CCC3)CC1 | . | 1.1
Cc1ccc(S(=O)(=O)c2ccc(Cl)cc2)cc1S(=O)(=O)Nc1cccc(C(=O)O)c1 | -0.77 | .
CCNC1=C(C(=O)N2CCOCC2)S(=O)(=O)c2ccccc21 | . | 0.97
C=CCn1c2ccccc2c2nnc(SCC(=O)OC)nc21 | -0.65 | 0.69
Cc1ccc(S(=O)(=O)Nc2cc(C(C)(C)C)sc2C(N)=O)cc1 | 0.28 | .
CC1CCc2cc(F)ccc2N1S(=O)(=O)c1ccc(N2CCCCS2(=O)=O)cc1 (configuration not stated) | . | 0.91
COc1cccc(-c2noc(Nc3ccc(OC)c(OC)c3)n2)c1 | . | 0.45
CCOC(=O)Cn1cnc2nc3c(cc2c1=O)CCCC3 | 0.01 | 0.24
COc1ccc2cc(S(=O)(=O)c3ccc(C(C)C)cc3)c(=O)oc2c1 | -1.3 | .
CC12N=NCC1C(=O)N(c1ccccc1Cl)C2=O (configuration not stated) | 1.5 | 0.8
Cc1nc(COc2ccc(/C(N)=N/O)cc2)cs1 | -1.5 | .
CC(=O)C1C(c2cccc(Br)c2)NC(=O)NC1(O)C(F)(F)F (configuration not stated) | -0.23 | .
CCOC(=O)N1CCN(c2nc3ccc(C)cc3n3nnnc23)CC1 | . | -3.4
COc1ccccc1-c1cc(C(F)(F)F)nc(S(=O)(=O)CCCC(=O)Nc2cc(C)on2)n1 | -1.1 | .
Cn1c(=O)oc2cc(Nc3nc4ccccc4c4nncn34)ccc21 | . | 0.47
CCCCN(CCS(=O)(=O)N1CCNCC1)S(=O)(=O)c1ccc(Cl)cc1 | . | 1.1
CC(C)c1nnc(NC(=O)Cn2cnc3c2c(=O)n(C)c(=O)n3C)s1 | -0.17 | 0.61
Cc1nccc2[nH]c(=O)c(C#N)cc12 | -3.1 | .

The closing 5 compounds of the section before are carried over, then new ones follow.
structure | CDC25B CDK2 inh | HIV TAR-Tat
COc1ccccc1-c1cc(C(F)(F)F)nc(S(=O)(=O)CCCC(=O)Nc2cc(C)on2)n1 | -1.1 | .
Cn1c(=O)oc2cc(Nc3nc4ccccc4c4nncn34)ccc21 | . | 0.47
CCCCN(CCS(=O)(=O)N1CCNCC1)S(=O)(=O)c1ccc(Cl)cc1 | . | 1.1
CC(C)c1nnc(NC(=O)Cn2cnc3c2c(=O)n(C)c(=O)n3C)s1 | -0.17 | 0.61
Cc1nccc2[nH]c(=O)c(C#N)cc12 | -3.1 | .
O=C(c1cccc(C(F)(F)F)c1)c1cc2cc(Cl)ccc2oc1=O | -0.69 | .
Cc1cc(C)c2c(-n3cccc3)nn(CC(=O)NCC3CCCO3)c2n1 (configuration not stated) | . | 0.4
COc1ccc(NC(C)=O)c(NCc2cc(OC)c(OC)c(OC)c2)c1 | -2.4 | .
CC1(C)CC(=O)C2=C(C1)Nc1ccccc1NC2c1cc(Br)ccc1O (configuration not stated) | -1.9 | .
N#CCC(=O)c1ccccc1[N+](=O)[O-] | -1.7 | .
CCOC(=O)C(=CNc1cc(C)ccc1[N+](=O)[O-])C(=O)OCC | -1.1 | .
COc1ccc(Nc2nc(NCCN3CCOCC3)nc3c2cnn3C)cc1 | . | 1.4
c1ccc2[nH]c(C3CCCN3)nc2c1 (configuration not stated) | 0.07 | 0.36
O=C(Nc1nnc(SCc2nnc(-c3ccccc3)o2)s1)C1CC1 | . | 2.2
COCC(C)NC(=O)COCc1cc(-c2ccco2)on1 (configuration not stated) | . | 0.01
CCCN1C(=O)C2(/C(=C(/O)c3ccc(Cl)cc3)C(=O)C(=O)N2CCOC)c2ccccc21 (configuration not stated) | 0.32 | 0.31
CCOC(=O)CSc1nc(C)c2ccccc2n1 | -3 | 0.22
COc1ccc(-c2c(C)nn3c(N4CCC(C)CC4)cc(C)nc23)cc1OC | -1.4 | 2.1
O=c1oc(-c2ccc(-c3ccccc3)cc2)nc2ccccc12 | -1.3 | 0.48
CCCc1nc(SCC(=O)Nc2nc3ccccc3s2)c2c(=O)n(C)c(=O)n(C)c2n1 | . | -0.16
CC1=C(C#N)C(c2ccc(Br)cc2)C2=C(CCCC2=O)N1 (configuration not stated) | -1.7 | -0.12
CCOc1cccc2c1Oc1[nH]c(-c3cc(OC)c(OC)c(OC)c3)nc(=S)c1C2 | -1.4 | .
COCCN[C@H]1CS(=O)(=O)C[C@@H]1S(=O)(=O)c1ccc(Cl)cc1 | -1.1 | 0.83
O=C(O)C1C2C=CC3(CN(Cc4ccncc4)C(=O)C13)O2 (configuration not stated) | -0.12 | 0.24
CCC(=O)N1CC23C=CC(CC2CC12CCCCC2)O3 (configuration not stated) | -2.2 | 1.9
O=C(C1CCCCC1)N1CC(=O)N(CCc2ccccc2)C(=O)C1 | -2.7 | .
NCC1CCC(C(=O)Oc2ccc(CCC(=O)O)cc2)CC1 (configuration not stated) | . | 0.63
CCC(C(=O)NCCCN1CCOCC1)n1nc(C)c2sc3ccccc3c2c1=O (configuration not stated) | -2 | 1.6
O=C(CCC1=NS(=O)(=O)c2ccccc2N1)NCCCc1ccco1 | . | -0.07
O=C(c1cc(-c2ccccc2)c(N2CCOCC2)s1)N1CCC(N2CCCCC2)CC1 | . | 0.19
Cc1ccc(S(=O)(=O)c2nc(-c3cccs3)oc2S(=O)(=O)Cc2ccccc2F)cc1 | -7.7 | 1.2
CSc1cccc(NC(=O)N2CCC3(CC2)Nc2cc(F)ccc2-n2cccc23)c1 | . | -0.67
O=S(=O)(c1ccccc1)c1cnc2ccc(F)cc2c1Nc1ccc2c(c1)OCO2 | -1.8 | -0.99
CC(C)CCNC(=O)C1CCN(c2ncnc3c2nc2n3CCCCC2)CC1 | . | -2.3
CC(C)CCN(CCS(=O)(=O)N1CCNCC1)S(=O)(=O)c1ccc(F)cc1 | . | 2.3
CC1=C(C(=O)OCCOC(C)C)C(c2cc3c(cc2Br)OCO3)CC(=O)N1 (configuration not stated) | -1.4 | 0.89
CC(=O)N1CCc2c(sc3nc(SCc4ccc(C)cc4)n(CC4CCCO4)c(=O)c23)C1 (configuration not stated) | -0.66 | 1.5
COc1ccc(OC)c(C2Nc3ccccc3S(=O)(=O)N2Cc2ccccc2)c1 (configuration not stated) | -0.83 | .
Cc1csc(Nc2ccc(F)c(Cl)c2)[n+]1C(C)C | -0.92 | .
CCN1CCN(C(=O)C2CCN(c3ccc(-c4cccs4)nn3)CC2)CC1 | . | -1
O=C(c1ccco1)N1CCN(C(=O)c2cnn(-c3ccc(F)cc3F)c2C2CCNCC2)CC1 | . | 1.2
COc1cccc(CN2C=NS(=O)(=O)c3ccccc32)c1 | . | 0.67
C=CCNC(=O)CCSc1nc(-c2ccco2)cc(C(F)(F)F)n1 | -2.2 | -1.2
O=C(NCc1ccc2c(c1)OCO2)c1nnc(-c2cccnc2)o1 | -0.2 | 1.9
CC(=O)OCC1=C(C(=O)O)N2C(=O)C(NC(=O)c3ccc(F)cc3)C2SC1 (configuration not stated) | 0.43 | -0.36
COc1ccc(NC(=O)N2CCOc3ccc(Cl)cc32)cc1 | . | 1.3
CCOC(=O)c1c(C)oc2nc(C)nc(N3CCN(C)CC3)c12 | . | -0.31

Record cards (already shown). Screens in order: CDC25B CDK2 inh	HIV TAR-Tat
COc1ccc(NC(=O)N2CCOc3ccc(Cl)cc32)cc1 in the list: .	1.3
O=C(c1ccco1)N1CCN(C(=O)c2cnn(-c3ccc(F)cc3F)c2C2CCNCC2)CC1 in the list: .	1.2
